# GLP1R cytotox: cytotoxicity in counter-screen for GLP-1R inverse agonists | HEK293 cAMP-luciferase reporter cells, luminescence, 24 h | Potency, µM (highest dose often 38.3 µM), without a hit: top-dose activity change, negative = inhibition, actives largely listed as inhibitors | 0.13% of 410,000 active | AID 624418;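 note: loss of luciferase light is scored as toxicity; potency is the fitted concentration of half-maximal effect; % is set by controls: 0 for no effect and ±100 for the full control effect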
#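 Seeding density was 200 cells/uL; after overnight-length (12 h) culture, 23 nL compounds went on for 24 h at 37 °C. Readout used a luciferase detection reagent, luminescence taken after 12 min at room temperature.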
# GLP-1R inv ag: GLP-1 receptor (human) inverse agonism. P43220. HEK293 GLP-1R CRE-luciferase, luminescence, 24 h; GLP-1R form is constitutively active. Potency, µM (highest dose often 38.3 µM), for the others: at the top dose activity change, negative = inhibition, usual class: inhibitors. 1.6% of 410,000 active. AID 624417; note: potency is the fitted concentration of half-maximal effect; % is set by controls: 0 for no effect and ±100 for the full control effect; nearly all actives have a fitted effect of over 55% in size
# Target sequence (P43220 whole entry, looked up): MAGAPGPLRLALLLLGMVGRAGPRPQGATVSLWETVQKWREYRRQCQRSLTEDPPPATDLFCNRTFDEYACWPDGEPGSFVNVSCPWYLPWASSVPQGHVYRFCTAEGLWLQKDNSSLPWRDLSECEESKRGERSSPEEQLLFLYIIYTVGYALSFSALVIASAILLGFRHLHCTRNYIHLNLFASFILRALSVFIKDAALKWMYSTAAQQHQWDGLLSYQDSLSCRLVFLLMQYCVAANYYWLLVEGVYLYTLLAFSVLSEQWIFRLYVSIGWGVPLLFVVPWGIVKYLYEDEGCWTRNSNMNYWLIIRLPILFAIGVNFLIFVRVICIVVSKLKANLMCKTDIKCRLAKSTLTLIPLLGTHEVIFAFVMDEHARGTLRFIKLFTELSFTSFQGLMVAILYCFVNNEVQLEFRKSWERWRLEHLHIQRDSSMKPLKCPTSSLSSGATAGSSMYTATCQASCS
#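 HEK293 cells stably co-expressing a cAMP-responsive luciferase reporter and constitutively active GLP-1R were seeded, incubated 12 h, then exposed to compounds for 24 h at 37 C. Luminescence was read 12 min after detection reagent; inverse agonists lower signal.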
# GLP-1R agonist: agonists of human GLP-1 receptor; P43220; 0.007% of 380,000 active; HEK293 GLP-1R CRE-luciferase, luminescence, 4-6 h; cells express a hypersensitive GLP-1R form; AID 624172; Potency, µM (highest dose often 45.6 µM), inactives show at the highest dose activation, hits mostly activators; note: potency is the fitted concentration of half-maximal effect; % of control where 0% means no effect
# PLK1 PBD inh: blocks phosphopeptide binding to human PLK1 polo-box domain; P53350; Plk1 PBD binding of FITC phosphopeptide, fluorescence polarization; Potency, µM, without a hit: max response, negative = inhibition, actives largely listed as inhibitors; 2.8% of 360,000 active; AID 720504; note: potency is the fitted concentration of half-maximal effect; series mostly up to about 57 µM; % is set by controls: 0 for no effect and ±100 for the full control effect; nearly all actives have a fitted effect of over 65% in size
# EPAC1 antag: blocks human EPAC1 exchange factor | EPAC1 GEF assay, Rap1b-BODIPY-GDP exchange fluorescence | 0.14% of 360,000 active | O95398 | Potency, µM (doses to about 115 µM), for the others: top-dose activity change, negative = inhibition, hits mostly inhibitors;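 note: potency is the fitted concentration of half-maximal effect; plate controls were vehicle for no effect and positive control for full effect; nearly all actives have a fitted effect of over 50% in size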
# EPAC1 agonist: activates human EPAC1 exchange factor; O95398; EPAC1 agonist qHTS, biochemical assay; response scale: 100% = response to 6.5 mM cAMP; Potency, µM (series often up to 154 µM), inactives show at the highest dose activation, actives largely listed as activators; 0.073% of 360,000 active; note: potency is the fitted concentration of half-maximal effect; nearly all actives have a fitted effect of over 60% in size
#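 Normalized to 6.5 mM cAMP, activity reflects EPAC1-catalysed release of BODIPY-GDP from Rap1B, followed kinetically over 30 min at 480 nm excitation, 540 nm emission. Reaction contained 100 nM EPAC1, 250 nM Rap1B-BODIPY-GDP, 50 uM GDP.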
# IL-2 act: activates IL-2 in a cell-based reporter assay | IL-2 activation reporter assay, cell-based qHTS; stimulated with anti-CD3/CD4/CD28 beads; in transgenic mouse T cells | activation, % (series mostly up to about 46 µM) | 0.065% of 360,000 active | AID 652025; in the data active = activation above about 50%; inconclusive = mostly about 30% to 49%; note: 0% is about no effect
#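 First, unstimulated transgenic mouse T cells were exposed to compound for 60 min. Next, anti-CD3/anti-CD4-coated beads with anti-CD28 were added. Finally, after 18 h at 37 degrees C, EGFP and DsRed were imaged.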
# The depositor's hits bear a star; ? = inconclusive; [ ] = dose if it differs, or a comment. Unless noted, calls come from the whole dose curve; as a rule, active = well fitted curve in the direction sought with a large enough effect; inconclusive = small, poorly fitted or top-dose-only effect, or another doubt; inactive = no such curve, though single readings can be large; an effect the other way counts as inactive or inconclusive. These rows are one share of the data; the hit share may differ from the screen's.
# Sample of the layout, 7 compounds:
# Keys: A = GLP1R cytotox; B = GLP-1R inv ag; C = GLP-1R agonist; D = PLK1 PBD inh; E = EPAC1 antag; F = EPAC1 agonist; G = IL-2 act
[1] O=C(Nc1ccc(N2CCOCC2)cc1N1CCOCC1)c1ncoc1-c1cccc(F)c1
  A: 6% | B: 23% | C: 10% | D: -2% | E: 5% | F: 6% | G: 0.4
[2] Cc1cc(C#Cc2c(-c3ccccc3)n(C)c3ccccc23)ccc1F
  A: 32%[activator] | B: ? | C: 5% | D: 0% | E: -14% | F: -26% | G: -0.2
[3] COc1ccc(CCCN2CCC(CN3CCNC(=O)C3=O)CC2)cc1OC
  A: -5% | B: 3% | C: 2% | D: -11% | E: 8% | F: 8% | G: -0.6
[4] C/C(=N\NC(=O)c1cccnc1)c1c(O)cc(C)oc1=O
  A: 3% | B: -9% | C: -1% | D: -6% | E: -1% | F: 2% | G: -1.1
[5] O=C(Nc1ccc2oc(=O)ccc2c1)c1ccc(-c2cccc(Cl)c2)o1
  A: -1% | B: -9% | C: -3% | D: -13% | E: 7% | F: 1% | G: 0.3
[6] O=C(/C=C/c1cn(-c2ccccc2)nc1-c1cccs1)NCCN1CCOCC1
  A: -1% | B: ? | C: 2% | D: -12% | E: -5% | F: -7% | G: -1.2
[7] C=CCn1c(CNC(=O)c2ccccc2F)nnc1SCC(=O)N1CCOCC1
  A: 8% | B: 12% | C: 10% | D: -8% | E: 8% | F: -3% | G: -3.3

# This part in full (from the top)
# Keys: A = GLP1R cytotox; B = GLP-1R inv ag; C = GLP-1R agonist; D = PLK1 PBD inh; E = EPAC1 antag; F = EPAC1 agonist; G = IL-2 act
[1] O=C(Nc1ccc(N2CCOCC2)cc1N1CCOCC1)c1ncoc1-c1cccc(F)c1
  A: 6% | B: 23% | C: 10% | D: -2% | E: 5% | F: 6% | G: 0.4
[2] Cc1cc(C#Cc2c(-c3ccccc3)n(C)c3ccccc23)ccc1F
  A: 32%[activator] | B: ? | C: 5% | D: 0% | E: -14% | F: -26% | G: -0.2
[3] COc1ccc(CCCN2CCC(CN3CCNC(=O)C3=O)CC2)cc1OC
  A: -5% | B: 3% | C: 2% | D: -11% | E: 8% | F: 8% | G: -0.6
[4] C/C(=N\NC(=O)c1cccnc1)c1c(O)cc(C)oc1=O
  A: 3% | B: -9% | C: -1% | D: -6% | E: -1% | F: 2% | G: -1.1
[5] O=C(Nc1ccc2oc(=O)ccc2c1)c1ccc(-c2cccc(Cl)c2)o1
  A: -1% | B: -9% | C: -3% | D: -13% | E: 7% | F: 1% | G: 0.3
[6] O=C(/C=C/c1cn(-c2ccccc2)nc1-c1cccs1)NCCN1CCOCC1
  A: -1% | B: ? | C: 2% | D: -12% | E: -5% | F: -7% | G: -1.2
[7] C=CCn1c(CNC(=O)c2ccccc2F)nnc1SCC(=O)N1CCOCC1
  A: 8% | B: 12% | C: 10% | D: -8% | E: 8% | F: -3% | G: -3.3
[8] OC(CN1CCc2ccccc2C1)c1ccccc1 (configuration not stated)
  A: 4% | B: 9% | C: 10% | D: -7% | E: -2% | F: -6% | G: 3.6
[9] CCOC(=O)C1CCN(C(=O)CCCNC(=O)Cn2cnc3sc(C)c(C)c3c2=O)CC1
  A: -1% | B: 29% | C: 11% | D: -25% | E: -6% | F: -2% | G: 1.2
[10] O=C(Nc1nnc(CCN2CCCCC2)s1)c1ccc(Cl)cc1Cl
  A: -8% | B: 5% | C: 13% | D: -9% | E: -7% | F: 1% | G: 0.1
[11] O=C(Nc1ccc2oc(=O)ccc2c1)c1cccnc1Cl
  A: 15% | B: 3% | C: -5% | D: -8% | E: 0% | F: 2% | G: 0.6
[12] Cc1ccc(S(=O)(=O)CC(=O)c2cc3cccc(C)c3oc2=O)cc1
  A: 2% | B: 10% | C: -2% | D: 19µM* | E: 1% | F: -8% | G: 0.1
[13] CCC(NS(=O)(=O)c1c(C)[nH]c(=O)[nH]c1=O)C12CC3CC(CC(C3)C1)C2 (configuration not stated)
  A: 6% | B: 1% | C: -7% | D: -12% | E: -14% | F: -5% | G: -2.8
[14] COc1cccc(NC(=O)c2ccc(NS(=O)(=O)c3cccs3)cc2)c1
  A: -3% | B: -9% | C: 0% | D: -3% | E: 13% | F: -3% | G: -4.4
[15] CN(c1ccccc1)S(=O)(=O)c1ccc(C(=O)OCC(=O)NC(N)=O)cc1
  A: 8% | B: 12% | C: -5% | D: -12% | E: -19% | F: 8% | G: -0.1
